Vif A3G = inhibitors of Vif binding to APOBEC3G peptide, primary screen, biochemical, TR-FRET, GST-Vif 1-94, biotin-A3G peptide, dose response retest (AID 1117319). Virion infectivity factor (Human immunodeficiency virus type 1 group M subtype B (isolate …. TR-FRET GST-Vif / biotin-A3G peptide binding; higher % means a stronger effect; test concentration not given here; strong numbers were not always called active. inhibition, %, or IC50 in µM where a hit was titrated. hit rate 0.57% among 260,000;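 active = above the screen mean plus three standard deviations and confirmed in dose response; inconclusive = results disagree or hit not tested in dose response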;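 note: Vif residues 1-94 fused to GST binding biotinylated APOBEC3G peptide 110-148; 0% = full assay without inhibitor and 100% = GST in place of GST-Vif; retest series ran down from 100 µM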
AF4-AF9 inh = inhibitors of AF4 peptide binding to AF9, primary screen, biochemical, AlphaScreen, biotin-AF4 peptide, FLAG-AF9, single point; Protein AF-9 (Homo sapiens), P42568; inhibition, % at 10 µM; hit rate 0.47% among 350,000; AID 651704, 2012;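 active = every replicate reaching a set inhibition limit, whatever the replicate mean, cut at about 25% in these data; inconclusive = mean inhibition reaches that limit but some replicates miss it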;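 note: 0% = plate neutral control median and 100% = total signal loss; the record names both 10 and 1 µM as test concentration; the first replicate is given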
Target sequence (P42568 whole entry, looked up): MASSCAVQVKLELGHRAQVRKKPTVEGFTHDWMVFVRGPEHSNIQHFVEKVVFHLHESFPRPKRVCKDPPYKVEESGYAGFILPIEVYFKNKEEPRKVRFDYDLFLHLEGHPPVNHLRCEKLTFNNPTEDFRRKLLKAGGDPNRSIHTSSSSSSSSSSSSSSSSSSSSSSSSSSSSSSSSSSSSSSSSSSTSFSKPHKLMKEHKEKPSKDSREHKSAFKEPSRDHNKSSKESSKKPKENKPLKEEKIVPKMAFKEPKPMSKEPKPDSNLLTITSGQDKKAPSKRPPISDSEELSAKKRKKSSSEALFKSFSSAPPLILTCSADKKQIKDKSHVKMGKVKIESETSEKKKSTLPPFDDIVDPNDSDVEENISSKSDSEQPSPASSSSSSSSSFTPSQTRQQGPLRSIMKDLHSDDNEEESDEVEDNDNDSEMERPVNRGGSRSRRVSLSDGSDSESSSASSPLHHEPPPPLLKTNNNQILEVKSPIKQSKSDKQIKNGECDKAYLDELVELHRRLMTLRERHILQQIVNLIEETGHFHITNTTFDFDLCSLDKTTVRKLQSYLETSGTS
FGF22 binding = binders of human FGF22 protein, primary screen, FGF22 synaptogenesis inhibitor project, biophysical, thermal shift, single point; hit rate 1.5% among 340,000; Fibroblast growth factor 22 (Homo sapiens), Q9HCT0; calls only at 9.99 µM; recombinant FGF22 thermal shift, SYPRO orange fluorescence; percent of sucrose octasulfate shift, DMSO zero; AID 651658, 2012;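 active = melting point raised past a set limit in the mean and every replicate; inconclusive = no clear call; three in four hits are not shown here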
Target sequence (Q9HCT0 whole entry, looked up): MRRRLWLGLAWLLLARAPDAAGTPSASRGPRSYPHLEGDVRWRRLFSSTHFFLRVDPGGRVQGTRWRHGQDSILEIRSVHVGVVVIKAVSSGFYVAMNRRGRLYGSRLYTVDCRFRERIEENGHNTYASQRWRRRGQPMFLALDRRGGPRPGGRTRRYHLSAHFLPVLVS
E coli growth = E. coli growth inhibition, primary screen, OD600 | AID 1053175, 2014 | OD600 absorbance (test concentration not listed) | hit rate 0.21% among 330,000 | Escherichia coli growth, 23 h; hits give low values;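 active = OD600 absorbance below the run mean of sample wells minus 3.6 SD, in any replicate, cut at about 0.56 in these data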;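 note: stock transfer was 300 nL into about 60 µL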
HNF4A DNA FP = change in binding of human HNF4A to DNA, primary screen, biochemical, fluorescence polarization, FITC-DNA | Hepatocyte nuclear factor 4-alpha (Homo sapiens), P41235 | AID 1224865, 2016 | activity change, % at 10 µM | 1 h | hit rate 0.3% among 360,000; in the data active = activity change above about 30%, passing the limit was not always enough;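 note: controls were the assay level and a saturating level of protein; the project sought stronger binding though the title names inhibitors; some compounds called inactive have numbers as strong as hits; positive values seem to mean higher polarization but the record does not say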
UCH37 inh = inhibitors of human UCH37 deubiquitinase, primary screen, biochemical, Ub-AMC cleavage, fluorescence. purified proteasome/UCH37. AID 588478, 2011. inhibition, % (no concentration beside the values). Ubiquitin carboxyl-terminal hydrolase isozyme L5 (Homo sapiens), Q9Y5K5. hit rate 0.33% among 330,000;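 active = mean of two replicates above 20%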;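 note: 0% = compound-free wells with enzyme and 100% = wells lacking proteasome; stock transfer was 100 nL into about 20 µL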
Target sequence (Q9Y5K5 whole entry, looked up): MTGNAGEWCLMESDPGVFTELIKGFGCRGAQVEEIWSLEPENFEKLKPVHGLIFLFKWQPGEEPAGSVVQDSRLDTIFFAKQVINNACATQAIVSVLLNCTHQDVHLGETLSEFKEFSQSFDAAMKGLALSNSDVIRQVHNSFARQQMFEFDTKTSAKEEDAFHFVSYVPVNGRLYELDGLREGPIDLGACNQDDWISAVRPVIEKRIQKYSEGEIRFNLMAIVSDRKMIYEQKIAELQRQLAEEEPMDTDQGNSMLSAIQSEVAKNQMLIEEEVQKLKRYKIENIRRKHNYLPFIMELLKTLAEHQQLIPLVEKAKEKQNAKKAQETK
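Material: human UCH37 enzyme supplied as purified proteasome complex. Measure: % inhibition of Ub-AMC cleavage fluorescence. Medium: pH 7.4 Tris-HCl (50 mM) with ovalbumin, ATP-MgCl2, DTT. Times: 30 min preincubation with enzyme, 25 min cleavage at room temperature. Detection: AMC fluorescence intensity at 355/460 nm.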
RanGTP-Impb inh = inhibitors of RanGTP-importin-beta interaction, primary screen, biochemical, FRET, CFP-Ran, YFP-importin-beta, homogeneous; Ran GTPase (GTP-bound) - importin-beta complex; cell-free CFP-Ran/YFP-importin-beta FRET ratio; inhibition, % (no concentration beside the values); hit rate 1.1% among 300,000; AID 2216, 2009;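 active = most replicates above 15%; inconclusive = exactly half above 15%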;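 note: 0% = DMSO wells and 100% = Ran loaded with GDP instead of GTP; wells of about 40 µL received 100 nL stock; the first replicate is given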
Numbers without * were called inactive; & = joins results of further samples.

Screening COc1ccc(C(=O)N(CCc2ccccc2)Cc2ccccc2)c(OC)n1 returned AF4-AF9 inh -0.7, FGF22 binding inactive, HNF4A DNA FP 3.2 and RanGTP-Impb inh 1.9.
Screening CCN(CC)S(=O)(=O)c1ccc(NC(=O)c2cc(-c3ccccc3)nc3ccccc23)cc1 returned AF4-AF9 inh 2.6, FGF22 binding inactive, E coli growth 0.709, HNF4A DNA FP 2.7, UCH37 inh 3.5 and RanGTP-Impb inh 9.3.
For Cc1cccc(NC(=O)CSc2nnc(-c3ccccc3)n2N)c1 the results were Vif A3G -4.5%, E coli growth 0.656, HNF4A DNA FP -0.7, UCH37 inh 3.3 and RanGTP-Impb inh 1.4.
Screening CCSc1nnc(NC(=O)CCNC(=O)c2ccccc2Cl)s1 returned AF4-AF9 inh -1.3, FGF22 binding inactive, E coli growth 0.715, HNF4A DNA FP 2.1 and UCH37 inh 5.2.
Screening CCOc1ccccc1C1C(C(=O)Nc2ccccc2OC)=C(C)Nc2nnnn21 (centres undefined) returned Vif A3G 0.3%, E coli growth 0.768, HNF4A DNA FP -0.3, UCH37 inh 3.5 and RanGTP-Impb inh 3.2.
For COCCNC(=O)CCCn1c(=O)c2cc(OC)c(OC)cc2n(CC(=O)Nc2ccc(F)cc2)c1=O the results were AF4-AF9 inh -44.9, FGF22 binding inactive, E coli growth 0.662, HNF4A DNA FP -2.5, UCH37 inh -10.8 and RanGTP-Impb inh -1.8.
For COc1ccc(S(=O)(=O)NNC(=O)Nc2ccc(C)cc2C)c(OC)c1 the results were Vif A3G -1.6%, AF4-AF9 inh -0.7, FGF22 binding inactive, E coli growth 0.721, HNF4A DNA FP 3.1, UCH37 inh 3.9 and RanGTP-Impb inh -1.9.
Screening COC(=O)CN1C(=O)C(C)(C)Oc2ccc(C(=O)NC3CC3)cc21 returned Vif A3G -4.4%, E coli growth 0.693, HNF4A DNA FP 2.9, UCH37 inh 3.9 and RanGTP-Impb inh -3.3.
CC1CCc2c(sc3ncnc(NCCCOC(C)C)c23)C1 (centres undefined) was read as Vif A3G -7.7%, E coli growth 0.68, HNF4A DNA FP 3.1, UCH37 inh -1.9 and RanGTP-Impb inh -2.4.
For O=C(CN1CCN(Cc2ccccc2)CC1)N1N=CCC1c1ccccc1 (centres undefined) the results were Vif A3G inconclusive, AF4-AF9 inh 5.2, FGF22 binding inactive, E coli growth 0.693, HNF4A DNA FP 4.4, UCH37 inh 2.2 and RanGTP-Impb inh 2.9.
Cc1cc(C)n2nc(C(=O)N/N=C/c3ccco3)nc2n1 was read as Vif A3G 7.8%, AF4-AF9 inh -1.0, FGF22 binding inactive, HNF4A DNA FP -5.5 and RanGTP-Impb inh -0.2.
NC1=NC(c2ccc(F)cc2)n2c(nc3ccccc32)N1 (centres undefined) was read as Vif A3G 1.4%, E coli growth 0.686, HNF4A DNA FP -0.1, UCH37 inh 0.7 and RanGTP-Impb inh -4.8.
CCCN1Cc2cccc(C(=O)Nc3ccc(CC)cc3)c2C1=O was read as Vif A3G -2.6%, E coli growth 0.704, HNF4A DNA FP -1.6, UCH37 inh 1.3 and RanGTP-Impb inh 1.1.
CCN(CC)c1ccc(C(=O)N/N=C/c2ccc(OC)cc2OC)cc1 was read as AF4-AF9 inh 3.6, FGF22 binding inactive, HNF4A DNA FP 3.5 and RanGTP-Impb inh -11.4.
For O=C(CSc1ccc(Cl)cc1)N1CCN(c2ccc(Cl)cc2[N+](=O)[O-])CC1 the results were Vif A3G -1.1%, AF4-AF9 inh -211.7, FGF22 binding inactive, E coli growth 0.701, HNF4A DNA FP -1.8, UCH37 inh 1.2 and RanGTP-Impb inh 1.7.
`O=C(Nc1ccccc1)c1cc(C2CCCCN2C(=O)c2cccs2)on1` (centres undefined) gave AF4-AF9 inh 1.2, FGF22 binding inactive and HNF4A DNA FP -5.1.
`N#CCCn1c(SCC(=O)NCC2CCCO2)nc2ccccc21` (centres undefined) gave Vif A3G -0.2%, E coli growth 0.745, HNF4A DNA FP 3.6, UCH37 inh 2.7 and RanGTP-Impb inh 3.8.
For COc1ccc(NC(=O)c2cc(S(=O)(=O)N3CCOCC3)ccc2N2CCOCC2)cc1 the results were AF4-AF9 inh 1.5, FGF22 binding inactive, E coli growth 0.708, HNF4A DNA FP -1.5, UCH37 inh 5.0 and RanGTP-Impb inh -3.7.
OCC[C@@H]1C[C@H](O)[C@@H](O)[C@@]2(OCc3cc(C(F)(F)F)ccc32)O1 was read as Vif A3G -4.6%, AF4-AF9 inh -6.3, FGF22 binding inactive and HNF4A DNA FP -2.3.
`CCC(=O)N(Cc1ccccc1)c1ccccn1` gave Vif A3G 31.5%, E coli growth 0.662, HNF4A DNA FP 11.1, UCH37 inh -2.3 and RanGTP-Impb inh -0.3.
O=C(Nc1nc(-c2ccccn2)cs1)c1ccc2c(c1)OCCO2 was read as Vif A3G -8.0%, AF4-AF9 inh -0.8, FGF22 binding inactive, E coli growth 0.769, HNF4A DNA FP -0.9, UCH37 inh -5.1 and RanGTP-Impb inh -0.2.
For O=C1CC(N(O)c2ccccc2)C(=O)N1c1cc(Cl)cc(Cl)c1 (centres undefined) the results were Vif A3G 3.7%, E coli growth 0.71, HNF4A DNA FP -0.1, UCH37 inh 0.7 and RanGTP-Impb inh -2.8.
Screening CCN(CC)CCNC(=S)Nc1ccc(Cl)cc1 returned Vif A3G 12.5%, AF4-AF9 inh 2.1, FGF22 binding inactive, E coli growth 0.691, HNF4A DNA FP 2.2, UCH37 inh 1.2 and RanGTP-Impb inh 0.9.
Screening Cc1[nH]c2ccccc2c1C(=O)COC(=O)c1ccc([N+](=O)[O-])s1 returned AF4-AF9 inh 0.1, FGF22 binding inactive, E coli growth 0.625, HNF4A DNA FP -1.7, UCH37 inh 6.8 and RanGTP-Impb inh 0.6.
`NC1=NC(c2cn[nH]c2-c2cccc(F)c2)n2c(nc3ccccc32)N1` (centres undefined) gave Vif A3G -0.4%, AF4-AF9 inh -7.7, FGF22 binding inactive, E coli growth 0.686, HNF4A DNA FP 0.9, UCH37 inh -1.3 and RanGTP-Impb inh 0.2.
Cc1ccc(Cc2c(-c3ccco3)nc3c(C)cc(Br)cn23)cc1 was read as AF4-AF9 inh 2.4, FGF22 binding inactive and HNF4A DNA FP 7.3.
O=C(CCN1C(=O)C2CC=CCC2C1=O)NC1CCCCC1 (centres undefined) was read as AF4-AF9 inh 2.4, FGF22 binding inactive, E coli growth 0.685, HNF4A DNA FP -1.8, UCH37 inh -0.2 and RanGTP-Impb inh 5.5.
Screening CCN(CC)CCN1c2ccccc2Sc2ccc3ccccc3c21 returned Vif A3G 4.6%, AF4-AF9 inh inconclusive, FGF22 binding inactive, E coli growth 0.625, HNF4A DNA FP 5.2, UCH37 inh -1.8 and RanGTP-Impb inh -2.5.
COc1ccccc1/C=C/c1onc(C)c1S(=O)(=O)N1CCC(C(=O)NC2CCCCCC2)CC1 was read as AF4-AF9 inh 1.7, FGF22 binding inactive, E coli growth 0.677, HNF4A DNA FP -0.3, UCH37 inh -5.4 and RanGTP-Impb inh 0.9.
For COc1ccc(C=NC(CO)C(O)c2ccc([N+](=O)[O-])cc2)cc1 (centres undefined) the results were Vif A3G -3.5%, E coli growth 0.767, HNF4A DNA FP 3.2, UCH37 inh 2.6 and RanGTP-Impb inh 3.6.
CC1(C)CC(=O)c2sc(NS(=O)(=O)c3ccc(Cl)cc3)nc2C1 was read as AF4-AF9 inh -0.4, FGF22 binding inactive, E coli growth 0.643, HNF4A DNA FP 3.9, UCH37 inh 8.5 and RanGTP-Impb inh -0.1.
For COc1ccc(N(CC(=O)NC2CC3CCC2C3)S(=O)(=O)c2ccc(C)c([N+](=O)[O-])c2)cc1 (centres undefined) the results were AF4-AF9 inh 1.3, FGF22 binding inactive, E coli growth 0.659, HNF4A DNA FP 3.0, UCH37 inh 3.5 and RanGTP-Impb inh -3.8.
CCc1c(C)sc(NC(=O)c2cc(-c3ccc(OC)c(OC)c3)on2)c1C#N was read as Vif A3G -5.9%, E coli growth 0.74, HNF4A DNA FP 0.9, UCH37 inh -78.3 and RanGTP-Impb inh 1.1.
Screening CCN(CC)CCn1c(OC)cc(=O)[nH]c1=O returned Vif A3G 1.4%, E coli growth 0.734, HNF4A DNA FP 1.4, UCH37 inh 4.7 and RanGTP-Impb inh -0.6.
Screening CCSc1nnc(-c2cccnc2)n1-c1ccc(C)c(Cl)c1 returned Vif A3G 4.5%, AF4-AF9 inh 6.5, FGF22 binding inactive, E coli growth 0.698, HNF4A DNA FP 0.8, UCH37 inh -0.7 and RanGTP-Impb inh 3.8.
Cn1c(=O)c2c(ncn2CC(=O)Nc2ccc(Cl)cc2Cl)n(C)c1=O was read as Vif A3G 0.0%, E coli growth 0.731, HNF4A DNA FP 2.6, UCH37 inh 1.2 and RanGTP-Impb inh -1.6.
O=C(Nc1nnc(C2CCCCC2)s1)c1ccc(Br)s1 was read as Vif A3G -3.5%, E coli growth 0.776, HNF4A DNA FP 7.5, UCH37 inh 1.3 and RanGTP-Impb inh -1.0.
For CCOC(=O)c1ccccc1NC(=O)CSc1nnc(Cc2cccn2C)n1-c1ccc(C)cc1 the results were Vif A3G 1.0%&-5.6%, E coli growth 0.721, HNF4A DNA FP -5.7, UCH37 inh -0.4 and RanGTP-Impb inh -0.5.
Screening Cc1cc(NC(=O)CSc2nnc(-c3c[nH]c4ccccc34)n2C)no1 returned Vif A3G 7.4%, AF4-AF9 inh 0.9, FGF22 binding inactive, E coli growth 0.68, HNF4A DNA FP -2.2, UCH37 inh -0.3 and RanGTP-Impb inh -11.6.
Cc1ccccc1NC(=O)CN(c1ccc(F)cc1)S(C)(=O)=O was read as Vif A3G 28.3%, E coli growth 0.668, HNF4A DNA FP 2.3, UCH37 inh 1.5 and RanGTP-Impb inh 0.4.
Screening Cc1ccc(N=C2NC(=O)CC(C(=O)Nc3ccc4c(c3)OCO4)S2)cc1 (centres undefined) returned Vif A3G 7.9%, AF4-AF9 inh 0.8, E coli growth 0.721, HNF4A DNA FP 2.8, UCH37 inh -1.9 and RanGTP-Impb inh 2.3.
For NC(=O)c1ccc(CN2CCC(Cc3ccccc3)CC2)cc1 the results were Vif A3G inconclusive, AF4-AF9 inh 0.2, FGF22 binding inactive, E coli growth 0.71, HNF4A DNA FP -3.4, UCH37 inh 6.6 and RanGTP-Impb inh 4.7.

Of the compounds above, 3 contain two or more sulfur atoms:
Screening CCSc1nnc(NC(=O)CCNC(=O)c2ccccc2Cl)s1 returned AF4-AF9 inh -1.3, FGF22 binding inactive, E coli growth 0.715, HNF4A DNA FP 2.1 and UCH37 inh 5.2.
CC1(C)CC(=O)c2sc(NS(=O)(=O)c3ccc(Cl)cc3)nc2C1 was read as AF4-AF9 inh -0.4, FGF22 binding inactive, E coli growth 0.643, HNF4A DNA FP 3.9, UCH37 inh 8.5 and RanGTP-Impb inh -0.1.
O=C(Nc1nnc(C2CCCCC2)s1)c1ccc(Br)s1 was read as Vif A3G -3.5%, E coli growth 0.776, HNF4A DNA FP 7.5, UCH37 inh 1.3 and RanGTP-Impb inh -1.0.

High-throughput results (PubChem BioAssay)

Only part of the results is shown; rates above refer to the full screens.
